Bioassay records deposited in PubChem by SRMLSC.
H5N1 antiviral: MDCK cell protection from H5N1 avian flu; cytopathic effect, luminescence, 72 h; active compounds read high; no value below 0 was filed and about half of the inactive calls have no number; reference of the scale not given here; inhibition, % at 50 µM; actives 0.07% (n = 96,000); AID 740; in the data active means inhibition above about 25%
* = called active by the depositor. This is a subset; the hit share may differ from the screen's.

Screening C=CCSC1=C(C#N)C(c2ccccc2OC)CC(=O)N1 (stereo unspecified) returned H5N1 antiviral inactive.
For O=C(O)c1nn(-c2ccccc2)nc1-c1nn(-c2ccccc2)nc1C(=O)O the results were H5N1 antiviral inactive.
COc1ccc(/C=N/n2c(N)c(S(=O)(=O)c3cccs3)c3nc4ccccc4nc32)cc1OC was read as H5N1 antiviral inactive.
For CSc1ccccc1NC(=O)CN(Cc1ccccc1)S(C)(=O)=O the results were H5N1 antiviral 2.0.
For CC(=O)Nc1cc(OC(=O)c2ccco2)cc(OC(=O)c2ccco2)c1 the results were H5N1 antiviral inactive.
Screening CCOc1ccc(OCCNC2CCCC2)cc1 returned H5N1 antiviral inactive.
For CCOc1cc2[nH]c(=O)n(CCCCCC(=O)NCc3ccco3)c(=O)c2cc1OCC the results were H5N1 antiviral inactive.
CC(=O)c1cccc(NC(=O)N2CCN(S(C)(=O)=O)CC2)c1 was read as H5N1 antiviral 0.7.
Screening c1ccc(-c2cc3ccccc3nc2N2CCCC2)cc1 returned H5N1 antiviral inactive.
Screening C=C(C)c1cccc(C(C)(C)NC(=O)NCCCn2ccnc2)c1 returned H5N1 antiviral inactive.
Screening O=C(/C=C/c1cccc([N+](=O)[O-])c1)NCc1cccnc1 returned H5N1 antiviral 0.8.
For O=C(C1CCCN(S(=O)(=O)c2cccs2)C1)N1CCN(C2CCCCC2)CC1 (stereo unspecified) the results were H5N1 antiviral 0.9.
For Cc1cc(C(=O)O)ccc1N/C=C1\CCCC(C)C1=O (stereo unspecified) the results were H5N1 antiviral 0.6.
`O=[N+]([O-])c1ccc(N2CCN(S(=O)(=O)c3ccc(Cl)cc3)CC2)cc1NCC1CCCO1` (stereo unspecified) gave H5N1 antiviral 3.6.
CCc1ccc(NC(=O)C2CCN(S(C)(=O)=O)CC2)cc1 was read as H5N1 antiviral 0.1.

Four compounds drawn at random from those above:
For CSc1ccccc1NC(=O)CN(Cc1ccccc1)S(C)(=O)=O the results were H5N1 antiviral 2.0.
Screening O=C(/C=C/c1cccc([N+](=O)[O-])c1)NCc1cccnc1 returned H5N1 antiviral 0.8.
CCc1ccc(NC(=O)C2CCN(S(C)(=O)=O)CC2)cc1 was read as H5N1 antiviral 0.1.
For CC(=O)Nc1cc(OC(=O)c2ccco2)cc(OC(=O)c2ccco2)c1 the results were H5N1 antiviral inactive.

(continued)
`O=C(NCC(=O)N(c1cccnc1)C(C(=O)NC1CCCC1)c1ccco1)c1cccs1` (stereo unspecified) gave H5N1 antiviral 0.8.
For COc1cc(-c2nnc(Sc3ccc(C(F)(F)F)cc3[N+](=O)[O-])o2)cc(OC)c1OC the results were H5N1 antiviral 0.7.
Screening CCN1C(=O)N(C)C(N(O)C(=O)NC)C1(C)C (stereo unspecified) returned H5N1 antiviral inactive.
For Cc1cc(N2CCN(c3ccccc3)CC2)n2nnnc2n1 the results were H5N1 antiviral 1.7.
Screening CCc1n[nH]c2c1C(=O)CC(C)(C)C2 returned H5N1 antiviral inactive.
For O=C1C=C(O)CC(c2cccs2)C1 (stereo unspecified) the results were H5N1 antiviral inactive.
N#C/C(=C1/CCCN1)c1ccccn1 was read as H5N1 antiviral 0.0.
`CC(C)C(=O)N(c1ccc2oc(=O)sc2c1)S(=O)(=O)c1ccccc1` gave H5N1 antiviral inactive.
Screening Cc1ccc2[nH]c(=O)c(CN(CCc3ccccc3)Cc3nnnn3CC3CCCO3)cc2c1 (stereo unspecified) returned H5N1 antiviral 2.0.
COC(=O)c1ccc(NC(=O)COc2ccc(S(=O)(=O)NC(C)C)cc2)cc1 was read as H5N1 antiviral inactive.
CCOC(=O)N1CCN(c2ccc(O)cc2)CC1 was read as H5N1 antiviral 0.8.
For NS(=O)(=O)c1ccc(NC(=O)CN2CCN(Cc3ccccc3)CC2)cc1 the results were H5N1 antiviral inactive.
COC(=O)C1=C(C)NC(=O)NC1/C=C/c1ccccc1 (stereo unspecified) was read as H5N1 antiviral 0.4.
For O=C(NC(=S)N1CCCc2ccccc21)c1ccccc1 the results were H5N1 antiviral 0.4.
Screening Cc1cccc(-n2nc3c(c2NC(=O)CCC2CCCCC2)CS(=O)C3)c1C (stereo unspecified) returned H5N1 antiviral inactive.

Brought forward from above: 4 entries, followed by the next part.
For NS(=O)(=O)c1ccc(NC(=O)CN2CCN(Cc3ccccc3)CC2)cc1 the results were H5N1 antiviral inactive.
COC(=O)C1=C(C)NC(=O)NC1/C=C/c1ccccc1 (stereo unspecified) was read as H5N1 antiviral 0.4.
For O=C(NC(=S)N1CCCc2ccccc21)c1ccccc1 the results were H5N1 antiviral 0.4.
Screening Cc1cccc(-n2nc3c(c2NC(=O)CCC2CCCCC2)CS(=O)C3)c1C (stereo unspecified) returned H5N1 antiviral inactive.
`Brc1ccc2ncnc(NCc3ccco3)c2c1` gave H5N1 antiviral 1.1.
For Cc1ccc(S(=O)(=O)N2CCN(Cc3nc4ccccc4n3C)CC2)cc1 the results were H5N1 antiviral inactive.
`O=c1c2ccccc2nc2n1CCS2` gave H5N1 antiviral inactive.
Screening CCOC(=O)CC1C(=O)NCCN1S(=O)(=O)c1ccccc1Cl (stereo unspecified) returned H5N1 antiviral inactive.
O=C(C1CCC(=O)N1Cc1ccccc1Cl)N1CCC2(CC1)OCCO2 (stereo unspecified) was read as H5N1 antiviral inactive.
For N#C/C(=C/c1ccc(Sc2nc3ccccc3[nH]2)o1)c1cccc(F)c1 the results were H5N1 antiviral 0.6.
For CCNC(=S)NNC(=O)c1cc(-c2ccc(OCC)cc2)nc2ccccc12 the results were H5N1 antiviral inactive.
For COc1ccc(Cn2c(N)c(S(=O)(=O)c3cccs3)c3nc4ccccc4nc32)cc1 the results were H5N1 antiviral 0.0.
Screening O=C(O)CCc1ccc(-c2ccccc2)n1Cc1ccco1 returned H5N1 antiviral inactive.
Screening N#Cc1cc2cc3c(cc2nc1N1CCOCC1)OCO3 returned H5N1 antiviral 0.2.
`CC(=O)N1CCC(C(=O)Nc2ccccc2)(N(Cc2ccccc2)C(=O)c2cccnc2)CC1` gave H5N1 antiviral inactive.
N#C/C(=C\c1cccs1)C(=O)NCC1CCCO1 (stereo unspecified) was read as H5N1 antiviral 0.8.
O=C(OCn1nnc2ccccc2c1=O)c1ccc2ncsc2c1 was read as H5N1 antiviral 0.6.
For CCOc1ccccc1-n1c(SCC(=O)NC2CCCC2)nnc1-c1ccoc1C the results were H5N1 antiviral inactive.
CS(=O)(=O)N(CCc1ccccc1)CC(=O)NCc1ccccn1 was read as H5N1 antiviral 0.5.

Nothing new here: two of the compounds above.
`CC(=O)N1CCC(C(=O)Nc2ccccc2)(N(Cc2ccccc2)C(=O)c2cccnc2)CC1` gave H5N1 antiviral inactive.
N#C/C(=C\c1cccs1)C(=O)NCC1CCCO1 (stereo unspecified) was read as H5N1 antiviral 0.8.

The list goes on:
`N#CC(C(=O)c1ccc(S(=O)(=O)N2CCCCCC2)cc1)c1nc2ccccc2[nH]1` (stereo unspecified) gave H5N1 antiviral 3.4.
`O=C(NCC1CCS(=O)(=O)C1)Oc1ccccc1` (stereo unspecified) gave H5N1 antiviral 0.4.
CCOC(=O)N1CCN(C(=O)c2ccc(CNS(=O)(=O)c3ccc(C)cc3)cc2)CC1 was read as H5N1 antiviral 0.8.
Screening CCN(CC)CCNC(=O)C1c2ccccc2C(=O)N(C)C1c1cn(C)c2ccccc12 (stereo unspecified) returned H5N1 antiviral 0.1.
COc1cc(C(=O)Oc2ccccc2/C=N/NC(=O)c2ccc(Cl)cc2Cl)cc(OC)c1OC was read as H5N1 antiviral inactive.
`COc1ccc(-c2nc(CSCC(=O)N3CCC(C(N)=O)CC3)c(C)o2)cc1OC` gave H5N1 antiviral 0.6.
`CCCC(c1nnnn1CS(=O)(=O)c1ccc(C)cc1)N1CCN(c2ccc(F)cc2)CC1` (stereo unspecified) gave H5N1 antiviral 0.8.
`COC(=O)c1c(NC(=O)Cn2cc([N+](=O)[O-])cn2)sc2c1CCC2` gave H5N1 antiviral inactive.
O=C1C2C3c4ccccc4C(c4ccccc43)C2C(=O)N1/N=C/c1cccc(O)c1 (stereo unspecified) was read as H5N1 antiviral inactive.
For CC(C)Oc1ccc(N2C(=O)c3ccccc3C2=O)cc1 the results were H5N1 antiviral inactive.
N#Cc1c(-c2ccccc2)[nH]c(=S)[nH]c1=O was read as H5N1 antiviral 0.9.
Screening Cc1ccc(C)c(SCc2noc(C(=O)NC(C)C)c2C(=O)O)c1 returned H5N1 antiviral 0.1.
`CCOC(=O)Cc1nnc(NC(=O)COc2ccc(OC)cc2)s1` gave H5N1 antiviral inactive.
Cc1nc2ccccc2n1CCC(=O)Nc1cccc(F)c1 was read as H5N1 antiviral inactive.
For O=C(NCc1ccco1)c1cc2c(s1)CCCCC2 the results were H5N1 antiviral 3.6.

3 structures already listed, ordered by heavy-atom count, high to low.
`CCCC(c1nnnn1CS(=O)(=O)c1ccc(C)cc1)N1CCN(c2ccc(F)cc2)CC1` (stereo unspecified) gave H5N1 antiviral 0.8.
Screening Cc1cccc(-n2nc3c(c2NC(=O)CCC2CCCCC2)CS(=O)C3)c1C (stereo unspecified) returned H5N1 antiviral inactive.
For CC(C)Oc1ccc(N2C(=O)c3ccccc3C2=O)cc1 the results were H5N1 antiviral inactive.

Continuation:
For O=C(CSc1nnc(-c2ccco2)n1Cc1ccco1)Nc1ccccc1 the results were H5N1 antiviral 0.6.
`COc1ccccc1-n1cnnc1SCC(=O)Nc1cc(C(C)(C)C)nn1-c1ccccc1` gave H5N1 antiviral 5.0.
Screening O=C1Nc2ccc(S(=O)(=O)N3CCCC3)c3cccc1c23 returned H5N1 antiviral 0.4.
For CN1CCN(C(=O)COc2ccc(C(C)(C)C)cc2Br)CC1 the results were H5N1 antiviral 0.5.
`CCSc1nnc(NC(=O)CSc2nnc(-c3c[nH]c4ccccc34)n2C)s1` gave H5N1 antiviral 0.5.
`COc1ccc(NC(=O)c2c(C)cc(=O)oc2C)c(OC)c1` gave H5N1 antiviral 1.4.
Screening CCCN(CCO)Cc1ccc(Br)cc1 returned H5N1 antiviral 0.8.
For C=CCNc1cnn(-c2ccc(C)cc2)c(=O)c1Cl the results were H5N1 antiviral inactive.
`CCOC(=O)CN1C(=O)C(CC)Oc2ccccc21` (stereo unspecified) gave H5N1 antiviral inactive.
For CCN(CC)CCCOc1ccc(C)cc1Br the results were H5N1 antiviral inactive.
Screening Cc1cccc(C)c1-n1c(C)cc(/C=C2\C(=O)NN(c3ccccc3)C2=O)c1C returned H5N1 antiviral 1.3.
For S=C(NCCC1=CCCCC1)Nc1ccccc1 the results were H5N1 antiviral 0.1.
N#CCSCC(=O)Nc1ccc(F)cc1 was read as H5N1 antiviral inactive.
`COc1cc(CO)ccc1Oc1nnnn1-c1ccc(C(N)=O)cc1` gave H5N1 antiviral inactive.
Screening Cc1cc(NC(=O)c2cnn3cccnc23)nn1CC(=O)Nc1cccnc1 returned H5N1 antiviral 2.2.
`O=C(c1ccco1)N1CCN(CC(=O)N2CCCc3c2c(=O)oc2ccc(O)cc32)CC1` gave H5N1 antiviral 2.1.
For COc1ccccc1-c1ccc(=O)n(CC(=O)NCc2ccc3c(c2)OCO3)n1 the results were H5N1 antiviral 0.8.
Screening Cc1nn(-c2ccccc2)c2[nH]c(=O)c(CNc3ccc4c(c3)OCCO4)cc12 returned H5N1 antiviral inactive.
For CC(Oc1ccc(Cl)cc1Cl)C(=O)NCCN1CCOCC1 (stereo unspecified) the results were H5N1 antiviral inactive.
`CC12C(=O)N(c3cccc(OC(=O)c4ccco4)c3)C(=O)C1C1c3ccccc3C2c2ccccc21` (stereo unspecified) gave H5N1 antiviral 0.5.
COc1ccc(N(C(C)C(=O)N/N=C/c2ccc(OC(C)C)cc2)S(C)(=O)=O)cc1 (stereo unspecified) was read as H5N1 antiviral 0.1.
CC(C)Oc1ccc(C(CC(=O)O)NC(=O)C2CCCCC2)cc1 (stereo unspecified) was read as H5N1 antiviral 0.6.
Screening Cc1ccc2[nH]c(=O)c(CN(CCCO)S(=O)(=O)c3c(C)ccc4nsnc34)cc2c1 returned H5N1 antiviral inactive.
For CC1=NN(C(=O)c2ccc(Cn3nc(C)c([N+](=O)[O-])c3C)cc2)C(O)(C(F)(F)F)C1 (stereo unspecified) the results were H5N1 antiviral inactive.
Screening Cn1c(SCC(=O)Nc2sc3c(c2C#N)CCC3)nnc1C1COc2ccccc2O1 (stereo unspecified) returned H5N1 antiviral 0.3.
Screening CC(=O)N1CCc2ccc(C(=O)CN3CCN(c4cccc(C)c4C)CC3)cc21 returned H5N1 antiviral 0.4.
For Cc1nn(-c2nc3ccccc3s2)c(N)c1Sc1ccc(F)cc1 the results were H5N1 antiviral inactive.
`Cc1c(/C=N/NC(=O)c2cc(=O)[nH]c(=O)[nH]2)c2ccccn2c1C(=O)c1ccccc1` gave H5N1 antiviral inactive.
For Nc1[nH]nc2nc(N3CCCC3)nc(-c3ccccc3)c12 the results were H5N1 antiviral 0.5.
`Cc1nc(NC(=O)c2ccccc2)sc1-c1csc(Nc2cccc(F)c2)n1` gave H5N1 antiviral inactive.
For CCCNC(=O)NC(=O)CSc1nnc(C)n1N the results were H5N1 antiviral 1.2.
Screening CC1(C)Cc2c(sc3[nH]c(=S)n(Cc4ccco4)c(=O)c23)CO1 returned H5N1 antiviral 4.6.
CN1C(=O)C(O)(CC(=O)c2ccccn2)c2cc(Br)ccc21 (stereo unspecified) was read as H5N1 antiviral inactive.
CN1CCN(c2ccccc2NC(=O)c2cccc(OCc3ccccc3)c2)CC1 was read as H5N1 antiviral inactive.
For CCCCCn1c(CN2CCN(c3cc(Cl)ccc3C)CC2)nc2c1c(=O)[nH]c(=O)n2C the results were H5N1 antiviral 1.3.
Screening CC(=O)c1ccc(C(C)(C)c2ccc(C(C)=O)s2)s1 returned H5N1 antiviral inactive.
For CCC(C)C(NS(=O)(=O)c1ccc(C)cc1)C(=O)Oc1ccc2c3c(c(=O)oc2c1)CCC3 (stereo unspecified) the results were H5N1 antiviral inactive.
Cc1cc(NS(=O)(=O)c2ccc(NC(=O)Nc3ccc4c(c3)OCO4)cc2)no1 was read as H5N1 antiviral inactive.
For CC(C)C(=O)N(c1cc2sc(=O)oc2c2ccccc12)S(=O)(=O)c1cccs1 the results were H5N1 antiviral inactive.
Screening CCN(CC(N)=O)S(=O)(=O)c1ccc(Br)cc1 returned H5N1 antiviral 0.5.
For CCN(CC)S(=O)(=O)c1cc(Br)ccc1OC the results were H5N1 antiviral 3.1.
For Cn1c(CCN2CCN(c3ccccc3)CC2)nc2cc(NC(=O)c3ccco3)ccc21 the results were H5N1 antiviral inactive.
`CCCC/C(O)=C/c1nc2ccccc2[nH]c1=O` gave H5N1 antiviral inactive.
